Source: PubChem
Arbovirus anti – antivirals against arbovirus infection; arbovirus infection cell-based antiviral screen; inhibition, % at 10 µM; actives 0.37% (n = 200,000);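 active means inhibition from about 30%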;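 further: bluetongue infection of BSR cells; cell survival read as ATP light after 72 h; 0% = infected wells without compound and 100% = uninfected wells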
Mtb betalactam – beta-lactam sensitization of Mtb H37Rv; M. tuberculosis H37Rv growth with meropenem, percent inhibition; hits of this screen are not shown here; inhibition, % at 25 µM; actives 0.27% (n = 330,000); AID 434955;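 active means about 74% or more and at least 40 points above the plate without the antibiotic, then above 30% in a dose series; inconclusive means first-round hits that could not be retested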;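 further: growth measured after seven days incubation then overnight dye step; 0% = bacteria only wells and 100% = bacteria with antibiotic; twin plates without the antibiotic show which effects depend on it; some results filed as inactive read as strong as hits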
YopH inh – blocks Yersinia enterocolitica YopH tyrosine phosphatase; actives 0.16% (n = 140,000); fluorescence Ex485/Em525; inhibition, %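 (about 10 µM by stock and volumes)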;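 active means inhibition of 50% or more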;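 further: controls were vehicle for no effect and minimum signal wells for full effect; inactives centre near -20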
RecA intein inh – inhibitors of M. tuberculosis RecA intein splicing. cell-free RecA intein splicing, fluorescence. inhibition, %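 (about 9 µM by stock and volumes)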. actives 0.75% (n = 290,000). P9WHJ3; in the data active means inhibition above about 30%; inconclusive means no clear call, values can overlap the other calls;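 further: 0% = vehicle wells and 100% = reference inhibitor control wells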
Target sequence (P9WHJ3 whole entry, looked up): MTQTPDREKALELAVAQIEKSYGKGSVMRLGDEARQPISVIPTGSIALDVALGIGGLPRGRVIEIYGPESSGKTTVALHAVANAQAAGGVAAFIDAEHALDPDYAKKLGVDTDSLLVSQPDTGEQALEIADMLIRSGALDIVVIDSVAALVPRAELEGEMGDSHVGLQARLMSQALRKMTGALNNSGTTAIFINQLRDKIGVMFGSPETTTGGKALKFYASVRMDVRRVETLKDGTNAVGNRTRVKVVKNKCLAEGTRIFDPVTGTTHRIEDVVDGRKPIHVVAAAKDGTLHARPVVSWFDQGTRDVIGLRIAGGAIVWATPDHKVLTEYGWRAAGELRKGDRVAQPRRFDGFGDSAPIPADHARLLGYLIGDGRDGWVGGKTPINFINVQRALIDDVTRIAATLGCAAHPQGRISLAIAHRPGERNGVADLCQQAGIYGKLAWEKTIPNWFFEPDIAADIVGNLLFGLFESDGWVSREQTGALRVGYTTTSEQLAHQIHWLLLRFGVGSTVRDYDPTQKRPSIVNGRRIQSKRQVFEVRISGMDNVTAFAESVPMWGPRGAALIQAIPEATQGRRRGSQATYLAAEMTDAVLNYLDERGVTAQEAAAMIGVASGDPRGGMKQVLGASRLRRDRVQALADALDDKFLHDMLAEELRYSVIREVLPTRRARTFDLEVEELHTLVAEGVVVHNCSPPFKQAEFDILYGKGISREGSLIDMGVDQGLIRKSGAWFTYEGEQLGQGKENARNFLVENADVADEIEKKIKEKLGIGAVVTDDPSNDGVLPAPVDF
Mtb H37Rv – M. tuberculosis H37Rv growth inhibitors, H37Rv strain (AID 1626); M. tuberculosis H37Rv growth inhibition; higher % means a stronger effect; inhibition, % at 10 µM; hits with a dose series show IC50 in µM; actives 0.95% (n = 220,000);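 active means confirmed in a dose series; inconclusive means inhibition above 80% but not taken into the dose series; inactive means below 80% or under 30% at every dose of the series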;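 further: bacteria incubated seven days before Alamar blue readout; 0% = bacteria only wells and 100% = bacteria with antibiotic wells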
Arbovirus anti repeat – recorded beside Arbovirus anti, whose call it bears; inhibition, %; measured here: 10K subset replicate screen; many hits read low in the repeat;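 first of two repeat runs on a subset; 0% = infected and 100% = uninfected wells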
An asterisk follows results filed as active; ? = inconclusive; / = no result given. A portion of the library; the hit share may differ from the screen's.

SMILES	Arbovirus anti	Mtb betalactam	YopH inh	RecA intein inh	Mtb H37Rv	others
CCc1cc(=O)oc2cc(OS(C)(=O)=O)ccc12	/	-5	-11	-2.5	1%
CC1(C)CN2C(=S)N(c3ccccc3)C(c3ccccc3)N2C1 (stereo unspecified)	-11	0	6	1.0	-7%
COc1ccc(-c2nc(CN3CCN(C(=O)c4ccco4)CC3)c(C)o2)c(OC)c1C	/	-10	/	1.2	/
CCOC(=O)c1ccc(-n2c(C)nc3ccc(Br)cc3c2=O)cc1	/	2	/	2.1	4%
Cn1c(C(=O)NCCN2CCOCC2)cc2c(=O)n(C)c3ccccc3c21	2	?	-36	0.7	0%
COc1ccc(CCn2c(C)nc3c(c(=O)c4ccccc4n3C)c2=O)cc1	5	-2	-28	0.8	1%
CCc1nc(N)c(C#N)c(-c2ccco2)c1C	-4	1	-19	-1.3	0%
CCN(Cc1nc(-c2ccc(OC)c(OC)c2)no1)C(=O)c1ccc2c(c1)OCO2	/	7	/	2.3	/
Cc1nc(SCc2ccccc2F)c2oc3ccccc3c2n1	/	8	/	/	>100µM*
CN(Cc1c(F)cccc1Cl)c1nnnn1-c1ccccc1	4	-1	-33	/	-4%
O=c1cc(-c2ccccc2)nc(Sc2ccc([N+](=O)[O-])cc2[N+](=O)[O-])[nH]1	/	67	/	18	/
Cc1[nH]nc(SCC(=O)N2CCCCCC2)c1[N+](=O)[O-]	-4	-2	/	-5.4	-4%
CC1CCCN(C(=O)CN2C(=O)CSc3ccc(S(=O)(=O)N4CCOCC4)cc32)C1 (stereo unspecified)	/	-4	/	-1.5	/
CCCS(=O)(=O)c1nc(S(=O)(=O)c2ccc(C)cc2)c(NCc2ccccn2)s1	-2	0	/	2.3	-5%
Cc1c(C(=O)Nc2ccccn2)oc2c(Cl)cccc12	/	3	/	0.6	/
COc1ccccc1Nc1nc(N)nc(CSC(=S)N2CCCCC2C)n1 (stereo unspecified)	5	11	-31	8.5	5%
CCN(CC)CCNC(=O)Cn1c(=O)c2cccn2c2ccc(F)cc21	/	4	/	-0.7	/
CCC1=C(c2ccc(C)cc2)S(=O)(=O)N=C1N1CCC(C(=O)NCCCN2CCCCC2)CC1	/	3	/	-3.6	/
CCn1c(=O)cc(C(=O)OC)sc1=Nc1ccc(F)c(F)c1	-10	91	-61	-2.8	31%	Arbovirus anti repeat=-15
Cn1c(C(=O)NCCN2CCc3ccccc3C2)cc2c(=O)[nH]c3ccccc3c21	3	-4	-33	0.4	-1%
CCN(C(=O)COc1cc(=O)n(C)c2ccccc12)c1cccc(Cl)c1	7	-6	-29	-3.1	-6%
Cc1ccc2nc(SCC(=O)NCc3ccc(F)cc3)nc(=O)n2c1	/	-11	/	-1.6	/
COc1ccc(C(O)P(=O)(Oc2ccccc2)Oc2ccccc2)cc1 (stereo unspecified)	/	6	/	2.0	/
COc1ccc(-n2c(SCC(C)=O)nc3sc(C)c(C)c3c2=O)cc1	/	-2	/	9.8	/
COc1cccc2[nH]c3c(N4CCC(C)CC4)ncnc3c12	9	-12	6	2.0	15%
CCC1(CC)Nc2ccccc2C(=O)N1c1ccc(OC)cc1	/	-5	/	/	-8%
COc1cccc(C2=NOC(C(=O)Nc3cc(OC)c(OC)c(OC)c3)C2)c1 (stereo unspecified)	7	-5	-27	3.1	-4%
O=C(Cc1cccc2ccccc12)NCC1CCCO1 (stereo unspecified)	1	-6	-1	2.8	0%
Cc1nc([N+](=O)[O-])c(C(=O)OCc2cccc(Br)c2)n1C	-6	-22	/	-17	-6%
Cc1ccn2c(NC(=O)C(C)(C)Oc3ccc(Cl)cc3)c(-c3cccs3)nc2c1	5	7	-21	0.3	-6%
O=C(NC1CCCCC1)C1CCN(S(=O)(=O)c2cccs2)CC1	-3	-3	-26	/	-4%
CCOC(=O)Cc1nn[nH]n1	4	-8	/	0.8	-3%
COc1ccc(-c2coc3cc(O)cc(O)c3c2=O)cc1OC	/	-4	/	-1.9	9%
NC(=O)c1ccc(N=C2C(=O)Nc3ccc([N+](=O)[O-])cc32)cc1	3	3	/	15	2%
COc1ccc(Br)cc1[C@H]1[C@H]2C=CC[C@@H](C)[C@@H]2C(=O)N1Cc1ccccc1	/	/	/	34*	-2%
CCOC(=O)c1c(NC(=S)N2CCOCC2)sc(C)c1C	/	16	/	1.4	2%
COC(=O)c1ccsc1-n1cc(C#N)c(=O)n(C)c1=O	21	0	/	1.7	-5%
CCOC(=O)c1ccc(-c2cc(C)no2)[nH]1	-8	-1	-15	0.8	-2%
Cc1cc(NC(=O)CSc2nc3ccsc3c(=O)n2CCCCC(=O)O)no1	-1	-13	-39	-6.9	-7%
CCOC(=O)n1c(=O)[nH]c2ccc(Br)cc21	6	-5	/	-1.5	-1%
Oc1ccc(C[C@@H]2CNCCN2CCCCC2CCCCC2)cc1	/	21	/	1.6	/
CC(CNC(=O)CCS(=O)(=O)c1ccc2c(c1)NC(=O)CO2)c1ccccc1 (stereo unspecified)	/	-1	/	-1.8	/
COc1ccccc1-c1noc(CCC(=O)Nc2cc(C(F)(F)F)ccc2Cl)n1	8	12	3	/	3%
COc1cccc(C(=O)N/N=C(\C)c2ccc(NC(=O)Cc3ccccc3)cc2)c1OC	/	4	/	0.8	/
COc1ccc(C(=O)NCCSCc2ccccc2)cc1OC	-1	0	/	-2.8	0%
CCCc1ccc(OCc2ccc(C(=O)N/N=C/c3cccnc3)o2)cc1	/	7	/	3.0	/
CC1Oc2ccccc2OC1C(=O)Nc1ccccn1 (stereo unspecified)	-5	-5	33	-0.3	8%
Cc1ccc(CNCC(=O)Nc2ccc(C)cc2Br)cc1	-7	1	/	0.7	5%
Cc1ccc(/C=N/NC(=O)c2c[nH]c3ccccc23)s1	-8	26	-10	-3.9	0%
COC(=O)c1ccc(N2C(=O)CC(N3CCOCC3)C2=O)cc1 (stereo unspecified)	5	4	-31	/	13%

Other records follow:
SMILES	Arbovirus anti	Mtb betalactam	YopH inh	RecA intein inh	Mtb H37Rv	others
CC(=O)c1ccc(NC(=S)N(C)C2CCN(C)CC2)cc1	0	0	-13	-4.9	1%
Cc1ccnc(NC(=O)c2ccc(Cl)cc2Cl)n1	-2	9	/	-2.9	-6%
Cc1ccccc1NC(=O)Cn1cccc1	5	/	7	-1.5	-9%
O=C(N/N=C\c1c(F)c(F)c(F)c(F)c1F)c1ccc(-c2ccccc2)cc1	/	0	/	0.0	/
C1CCN=C(NC23CC4CC(CC(C4)C2)C3)CC1	-7	-19	-14	-1.8	-7%
O=C(Nc1ccccc1O)c1ccc2c(c1)C(=O)N(Cc1ccco1)C2=O	/	-3	/	-0.7	/
COc1c(C)cc(S(=O)(=O)NCCN2CCOCC2)c(C)c1C	/	-3	/	-1.0	/
CN(C1CCS(=O)(=O)C1)S(=O)(=O)c1ccccc1 (stereo unspecified)	8	-9	/	-5.2	-10%
Cc1nn(C)cc1/C=N/NC(=O)c1ccco1	/	1	/	-0.6	-4%
O=C(O)c1cc(NCc2ccccc2)ccc1N1CCOCC1	-4	-7	-9	-1.8	-2%
Cc1ccccc1C(=O)c1c[nH]c(C(=O)NCCc2ccccn2)c1	1	-10	/	0.2	1%
COc1ccc(CCNCc2ccc(Br)cc2)cc1OC	/	2	/	-0.1	/
COc1cc(C(=O)Nc2ccc3c(c2)C(=O)N(CCC(=O)O)C3=O)cc(OC)c1OC	0	0	19	-2.2	-17%
Cc1cc(C)n2ncc(C(=O)NCc3cccnc3)c2n1	3	-3	-6	2.4	-4%
O=C(NC1CCCCC1)c1ccc(CS(=O)Cc2ccccc2Cl)o1 (stereo unspecified)	/	-6	/	-3.1	/
Nc1ccccc1S(=O)(=O)C(F)F	/	-3	/	-3.3	-5%
COc1ccc(C(=O)C2CCCN(C(=O)C3=CCCC3)C2)c(C)c1 (stereo unspecified)	4	-11	/	-1.9	-3%
Cc1ccc(NC(=O)CSc2nnnn2-c2cccnc2)c(C)c1	/	2	/	-2.2	/
CCOC(=O)C1(Cc2ccccc2)CCN(Cc2cnn(C(C)C)c2)CC1	-10	2	/	-1.2	4%
COc1ccc(COc2ccccc2C(=O)Nc2ccccn2)cc1[N+](=O)[O-]	2	0	-23	-0.4	-4%
CCC(C)(C)NC(=O)C(C(C)C)N(CC1CCCO1)C(=O)CNS(=O)(=O)c1ccccc1 (stereo unspecified)	/	3	/	-2.9	/
CCCCOC(=O)C1[C@H]2C(=O)N(c3ccccc3CC)C[C@]23C=C[C@H]1O3 (stereo partly specified)	10	-4	-22	1.6	-2%
CCCCCCn1cnc2c(oc3nc4c(cc32)CCCC4)c1=O	-20	4	-7	/	-1%
O=C(NC(NCCCN1CCOCC1)(C(F)(F)F)C(F)(F)F)C1CCCCC1	5	-17	-29	-1.2	-3%
Nc1ccc(-c2nc3ccc(N)cc3o2)cc1	-13	-1	-6	/	-5%	Arbovirus anti repeat=-18
Cc1ccc(C(CNS(=O)(=O)c2ccc(F)cc2C)N2CCN(C)CC2)cc1 (stereo unspecified)	/	1	/	0.3	/
CN1C(=O)NC(=O)/C(=C/c2ccc([N+](=O)[O-])o2)C1=O	/	99	/	2.0	8%
O=C1CC(Sc2ncccn2)C(=O)N1c1ccccc1 (stereo unspecified)	8	-6	-2	3.3	2%
CC(C)CCNC(=O)CCCCn1c(=O)[nH]c2ccsc2c1=O	0	2	/	4.6	-2%
COc1cc(C(=O)NCCN2CCCC2)cc(OC)c1OC	-2	-11	34	4.7	1%
CC1(CC(=O)N/N=C/c2cc3c(cc2Br)OCO3)OCCO1	4	-4	/	3.6	-5%
COc1ccccc1NC(=S)NNC(=O)c1ccccc1	/	12	-31	-4.5	-5%
O=C(O)CN1C(=O)/C(=C\c2ccccc2OCc2ccc(F)cc2)SC1=S	/	0	/	8.3	/
Cc1ccc(-c2cc(C(=O)N3CC4(C)CC3CC(C)(C)C4)no2)cc1 (stereo unspecified)	/	0	/	0.8	/
COCCCN1C(=O)c2ccc(C(=O)N3CCN(c4ccc(OC)cc4)CC3)cc2C1=O	/	3	/	-1.9	/
O=C(CN(Cc1ccccc1)S(=O)(=O)c1ccc(F)cc1)NCCC1=CCCCC1	-4	2	-35	5.0	-1%
Cc1ccc(S(=O)(=O)N2CCC(C(=O)N/N=C/c3cccnc3)CC2)cc1	10	0	-26	-2.1	-6%
C/C(=N/NC(=O)CNC(=O)Cc1ccccc1)c1ccc(Cl)cc1	/	-3	/	1.0	7%
COC(=O)C1=C(N)Oc2c(oc(CO)cc2=O)C1c1c(F)cccc1Cl (stereo unspecified)	-4	0	/	/	-4%
CN(Cc1ccccc1)C(=O)COc1cc(=O)n(C)c2ccccc12	0	-3	-52	-0.8	1%

Quoted at random: two records from the list
SMILES	Arbovirus anti	Mtb betalactam	YopH inh	RecA intein inh	Mtb H37Rv	others
O=C(O)c1cc(NCc2ccccc2)ccc1N1CCOCC1	-4	-7	-9	-1.8	-2%
CCCS(=O)(=O)c1nc(S(=O)(=O)c2ccc(C)cc2)c(NCc2ccccn2)s1	-2	0	/	2.3	-5%

The list continues.
SMILES	Arbovirus anti	Mtb betalactam	YopH inh	RecA intein inh	Mtb H37Rv	others
COc1cccc(C(=O)C2CCCN(C(=O)CCC3=NNC(=O)CC3)C2)c1 (stereo unspecified)	3	2	/	0.6	-5%
O=c1cc(N=Nc2ccc(Cl)cc2)[nH]c(=O)[nH]1	/	100	/	88*	13µM*
O=C(N/N=C/c1ccc(F)cc1)c1cc(-c2ccc3c(c2)OCO3)n[nH]1	/	0	/	-2.3	9%
COc1cccc(-n2c(=O)c3c(C)c(C(=O)N(C)C)sc3n(CC(=O)NCC3CCCO3)c2=O)c1 (stereo unspecified)	-3	-6	/	/	7%
CCc1ccccc1NC(=S)N1CCNC(=O)C1CC(=O)OC (stereo unspecified)	5	-3	/	-0.7	3%

Of the compounds above, these have two or more sulfur atoms.
SMILES	Arbovirus anti	Mtb betalactam	YopH inh	RecA intein inh	Mtb H37Rv	others
CC1CCCN(C(=O)CN2C(=O)CSc3ccc(S(=O)(=O)N4CCOCC4)cc32)C1 (stereo unspecified)	/	-4	/	-1.5	/
CCCS(=O)(=O)c1nc(S(=O)(=O)c2ccc(C)cc2)c(NCc2ccccn2)s1	-2	0	/	2.3	-5%
COc1ccccc1Nc1nc(N)nc(CSC(=S)N2CCCCC2C)n1 (stereo unspecified)	5	11	-31	8.5	5%
COc1ccc(-n2c(SCC(C)=O)nc3sc(C)c(C)c3c2=O)cc1	/	-2	/	9.8	/
O=C(NC1CCCCC1)C1CCN(S(=O)(=O)c2cccs2)CC1	-3	-3	-26	/	-4%
CCOC(=O)c1c(NC(=S)N2CCOCC2)sc(C)c1C	/	16	/	1.4	2%
Cc1cc(NC(=O)CSc2nc3ccsc3c(=O)n2CCCCC(=O)O)no1	-1	-13	-39	-6.9	-7%
CN(C1CCS(=O)(=O)C1)S(=O)(=O)c1ccccc1 (stereo unspecified)	8	-9	/	-5.2	-10%
O=C(O)CN1C(=O)/C(=C\c2ccccc2OCc2ccc(F)cc2)SC1=S	/	0	/	8.3	/
